AF4-AF9 inh – inhibitors of AF4 peptide binding to AF9, primary screen, biochemical, AlphaScreen, biotin-AF4 peptide, FLAG-AF9, single point | AID 651704, 2012 | Protein AF-9 (Homo sapiens), P42568 | inhibition, % at 10 µM | actives 0.47% (n = 350,000);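 active = every replicate reaching a set inhibition limit, whatever the replicate mean, cut at about 25% in these data; inconclusive = mean inhibition reaches that limit but some replicates miss it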;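 note: 0% = plate neutral control median and 100% = total signal loss; the record names both 10 and 1 µM as test concentration; the first replicate is given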
Target sequence (P42568 whole entry, looked up): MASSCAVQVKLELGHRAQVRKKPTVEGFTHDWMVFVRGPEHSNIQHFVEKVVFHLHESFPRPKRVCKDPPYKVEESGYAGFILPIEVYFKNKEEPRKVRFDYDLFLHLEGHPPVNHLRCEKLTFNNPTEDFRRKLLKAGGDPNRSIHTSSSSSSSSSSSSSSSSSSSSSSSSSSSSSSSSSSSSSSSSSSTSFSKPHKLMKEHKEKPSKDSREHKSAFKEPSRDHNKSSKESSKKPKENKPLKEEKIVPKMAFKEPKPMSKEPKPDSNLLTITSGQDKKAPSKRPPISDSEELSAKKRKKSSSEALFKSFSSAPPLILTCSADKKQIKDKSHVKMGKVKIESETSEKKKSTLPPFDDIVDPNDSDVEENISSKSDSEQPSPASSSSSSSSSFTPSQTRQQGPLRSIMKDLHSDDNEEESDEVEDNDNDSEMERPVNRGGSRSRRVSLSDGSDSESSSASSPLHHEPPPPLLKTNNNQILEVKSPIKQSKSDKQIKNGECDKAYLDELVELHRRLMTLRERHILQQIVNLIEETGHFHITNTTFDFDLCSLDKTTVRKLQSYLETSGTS
Active calls of the source: *; & = joins results of further samples.

How did CN(C)Cc1cn(CC[C@H]2CC[C@@H](NS(=O)(=O)c3ccccc3)[C@@H](CO)O2)nn1 do in these assays?
AF4-AF9 inh: -2.4

Results for C[C@H](CO)N1C[C@H](C)[C@H](CN(C)CC2CCCCC2)Oc2c(NS(=O)(=O)c3cccs3)cccc2C1=O ?
AF4-AF9 inh: 2.8

What do the screens show for `CCC(=O)N1C[C@@H](C)[C@@H](OC)CN(C)C(=O)c2ccc(NC(=O)c3cnccn3)cc2OC[C@H]1C`?
AF4-AF9 inh: inconclusive

What do the screens show for `COc1ccc2c3c([nH]c2c1)[C@H](CO)N(Cc1cc(F)ccc1F)CC31CCN(C(=O)CN(C)C)CC1`?
AF4-AF9 inh: 2.5

How did CN1C(=O)c2cc(NS(=O)(=O)c3ccc(Cl)cc3)ccc2OC[C@@H]2O[C@@H](CC(=O)N3CCc4ccccc4C3)CC[C@@H]21 do in these assays?
AF4-AF9 inh: -1.4

Results for COc1ccc2c3c(n(C)c2c1)[C@H](CO)N(C(=O)C1CC1)CC31CCN(CC2CCCC2)CC1 ?
AF4-AF9 inh: -0.1

Results for CCC(=O)N1C[C@H](O)COC[C@H]2O[C@H](CC(=O)NCC3CCCCC3)CC[C@@H]21 ?
AF4-AF9 inh: -1.8

How did COc1ccccc1S(=O)(=O)N(C)C[C@@H]1OCc2cn(nn2)CCCC(=O)N([C@H](C)CO)C[C@H]1C do in these assays?
AF4-AF9 inh: -2.5&-1.0

Results for C[C@@H]1CN([C@@H](C)CO)C(=O)Cc2cc(NC(=O)CCCN(C)C)ccc2O[C@@H]1CN(C)S(=O)(=O)c1ccc(Cl)cc1 ?
AF4-AF9 inh: 2.0

What do the screens show for `Cc1ccc(S(=O)(=O)N(C)C[C@@H]2Oc3ccc(NC(=O)Cn4cnnn4)cc3CC(=O)N([C@@H](C)CO)C[C@H]2C)cc1`?
AF4-AF9 inh: -9.7

How did CC(C)CC#Cc1cnc2c(c1)C(=O)N([C@@H](C)CO)C[C@@H](C)[C@@H](CN(C)Cc1ccc3c(c1)OCO3)O2 do in these assays?
AF4-AF9 inh: 4.6

How did CCCCC[C@@H](C)N1C[C@@H](COCc2ccccc2)Oc2cc(N3CC[C@H](O)C3)ccc2S1(=O)=O do in these assays?
AF4-AF9 inh: 1.5

How did COc1ccc(NC(=O)Nc2cccc3c2O[C@H](CN(C)Cc2ccccc2)[C@@H](C)CN([C@@H](C)CO)C3=O)cc1 do in these assays?
AF4-AF9 inh: 3.4

Results for C[C@@H]1CN([C@H](C)CO)C(=O)c2cccc(NC(=O)Nc3ccc4c(c3)OCO4)c2O[C@@H]1CN(C)Cc1ccc2c(c1)OCO2 ?
AF4-AF9 inh: 4.6

Results for CCC(=O)N1C[C@@H](C)[C@H](OC)CN(C)C(=O)c2ccc(NC(=O)C3CC3)cc2OC[C@@H]1C ?
AF4-AF9 inh: -2.4

Two successive entries out of the list so far, quoted:
How did CN(C)Cc1cn(CC[C@H]2CC[C@@H](NS(=O)(=O)c3ccccc3)[C@@H](CO)O2)nn1 do in these assays?
AF4-AF9 inh: -2.4

Results for C[C@H](CO)N1C[C@H](C)[C@H](CN(C)CC2CCCCC2)Oc2c(NS(=O)(=O)c3cccs3)cccc2C1=O ?
AF4-AF9 inh: 2.8

Going on with the list:
Results for O=C(Nc1cccc(F)c1)N1C[C@@H]2[C@H](c3ccccc31)[C@H](CO)N2C(=O)c1ccccc1F ?
AF4-AF9 inh: -1.2

Results for O=C(C[C@@H]1C[C@@H]2c3cc(NC(=O)c4ccc5c(c4)OCO5)ccc3O[C@@H]2[C@@H](CO)O1)NCc1ccccn1 ?
AF4-AF9 inh: -0.6

What do the screens show for `O=C(C[C@@H]1C=C[C@H](NC(=O)CN2CCOCC2)[C@@H](CO)O1)NCCc1ccncc1`?
AF4-AF9 inh: -5.6

What do the screens show for `COCC(=O)NC[C@@H]1[C@H](c2ccccc2)[C@@H](CO)N1C(C)=O`?
AF4-AF9 inh: 0.9

Results for O=C1N[C@@H](Cc2ccccc2)COCc2cn(nn2)CC[C@H]1Cc1ccccc1 ?
AF4-AF9 inh: -1.0

Results for COCCNC(=O)C[C@H]1C[C@H]2c3cc(NS(=O)(=O)c4ccccc4)ccc3O[C@H]2[C@@H](CO)O1 ?
AF4-AF9 inh: 0.3

What do the screens show for `C[C@H]1CN([C@@H](C)CO)C(=O)Cc2cc(NC(=O)Nc3cccc4ccccc34)ccc2O[C@H]1CN(C)C`?
AF4-AF9 inh: -0.3

What do the screens show for `C[C@@H]1CN([C@H](C)CO)C(=O)Cc2cc(NC(=O)Cc3ccccc3)ccc2O[C@@H]1CN(C)CC1CC1`?
AF4-AF9 inh: 0.2

How did C[C@@H]1CN([C@H](C)CO)C(=O)Cc2cc(NS(C)(=O)=O)ccc2O[C@@H]1CN(C)Cc1ccc(C(F)(F)F)cc1 do in these assays?
AF4-AF9 inh: -1.1

Results for CCCCN1CC(COC)Oc2cccc(F)c2S1(=O)=O (stereo not given) ?
AF4-AF9 inh: -6.6

How did C[C@@H]1CN([C@@H](C)CO)C(=O)Cc2cc(NC(=O)CCCCCC(=O)Nc3ccccc3N)ccc2O[C@@H]1CN(C)S(=O)(=O)c1ccccc1 do in these assays?
AF4-AF9 inh: -0.9

What do the screens show for `COc1cccc(S(=O)(=O)N[C@@H]2CC[C@H](CC(=O)NCc3ccc(F)cc3)O[C@@H]2CO)c1`?
AF4-AF9 inh: 0.3

Results for C[C@@H]1CN([C@@H](C)CO)C(=O)c2cccc(NC(=O)NC3CCCCC3)c2O[C@@H]1CN(C)Cc1ccc(C(=O)Nc2ccccc2N)cc1 ?
AF4-AF9 inh: 1.5

What do the screens show for `CCCC(=O)Nc1ccc2c(c1)C(=O)N(C)[C@@H]1CC[C@@H](CC(=O)NCC3CCCCC3)O[C@@H]1CO2`?
AF4-AF9 inh: 0.2

How did CCCC(=O)Nc1ccc2c(c1)C(=O)N(C)C[C@@H](OC)[C@@H](C)CN(Cc1ccccc1)[C@H](C)CO2 do in these assays?
AF4-AF9 inh: 1.3

Random excerpt: five entries already listed
What do the screens show for `C[C@@H]1CN([C@H](C)CO)C(=O)Cc2cc(NC(=O)Cc3ccccc3)ccc2O[C@@H]1CN(C)CC1CC1`?
AF4-AF9 inh: 0.2

What do the screens show for `COc1cccc(S(=O)(=O)N[C@@H]2CC[C@H](CC(=O)NCc3ccc(F)cc3)O[C@@H]2CO)c1`?
AF4-AF9 inh: 0.3

What do the screens show for `COCC(=O)NC[C@@H]1[C@H](c2ccccc2)[C@@H](CO)N1C(C)=O`?
AF4-AF9 inh: 0.9

Results for O=C(Nc1cccc(F)c1)N1C[C@@H]2[C@H](c3ccccc31)[C@H](CO)N2C(=O)c1ccccc1F ?
AF4-AF9 inh: -1.2

How did CCCC(=O)Nc1ccc2c(c1)C(=O)N(C)C[C@@H](OC)[C@@H](C)CN(Cc1ccccc1)[C@H](C)CO2 do in these assays?
AF4-AF9 inh: 1.3

(more compounds)
What do the screens show for `C[C@@H]1CN([C@@H](C)CO)C(=O)c2cc(NS(C)(=O)=O)ccc2O[C@@H](C)CCCCO[C@H]1CN(C)S(=O)(=O)c1cn(C)cn1`?
AF4-AF9 inh: 0.6

How did CC(C)NC(=O)NCC[C@@H]1CC[C@@H](NS(=O)(=O)c2ccccc2)[C@H](CO)O1 do in these assays?
AF4-AF9 inh: 2.9

How did CN1CCN(C(=O)C[C@H]2CC[C@H]3[C@@H](COc4ccc(NC(=O)c5cscn5)cc4C(=O)N3C)O2)CC1 do in these assays?
AF4-AF9 inh: -1.3

What do the screens show for `N#C[C@H]1[C@@H](c2ccccc2C2=CCCC2)[C@H](CO)N1C(=O)C1CCC1`?
AF4-AF9 inh: -2.2

What do the screens show for `CCOC(=O)[C@]12CCCC=C1N(Cc1ccc3c(c1)OCO3)C(=O)[C@H](CC(=O)N1CCCCC1)C2`?
AF4-AF9 inh: -2.1

How did COc1ccc(COC[C@@]23Oc4ccccc4[C@@H](NC(=O)N2C)[C@H]3CO)cc1 do in these assays?
AF4-AF9 inh: -0.6

Results for Cc1ccc(S(=O)(=O)Nc2cccc3c2O[C@H](CN(C)C(=O)Nc2ccccc2)[C@H](C)CN([C@H](C)CO)C3=O)cc1 ?
AF4-AF9 inh: 3.0

Results for CO[C@H]1CN(C)C(=O)c2cc(NC(=O)c3cccc(F)c3)ccc2OC[C@H](C)N(CC2CC2)C[C@@H]1C ?
AF4-AF9 inh: -10

How did CN(C)C(=O)[C@H]1[C@H](CO)[C@H]2Cn3c(cccc3=O)[C@@H]1N2CC1CCCCC1 do in these assays?
AF4-AF9 inh: 0.2

What do the screens show for `C[C@H](NC(=O)C[C@H]1C=C[C@@H](NC(=O)Cc2ccccn2)[C@H](CO)O1)c1ccccc1`?
AF4-AF9 inh: 1.0

What do the screens show for `COc1cccc(C(=O)Nc2ccc3c(c2)C(=O)N(C)C[C@H](OC)[C@@H](C)CN(C)[C@@H](C)CO3)c1`?
AF4-AF9 inh: -1.5

Results for COc1cccc(-c2cnc3c(c2)C(=O)N([C@H](C)CO)C[C@H](C)[C@H](CN(C)S(=O)(=O)c2ccc(F)cc2)O3)c1 ?
AF4-AF9 inh: 0.9

How did CC(C)n1nnnc1C1c2ccccc2C(=O)N1CCc1ccc(O)cc1 (stereo not given) do in these assays?
AF4-AF9 inh: 0.9

Results for CC(C)CC#Cc1cnc2c(c1)C(=O)N([C@H](C)CO)C[C@@H](C)[C@H](CN(C)C(=O)c1cnccn1)O2 ?
AF4-AF9 inh: -3.4

What do the screens show for `CCCN1C[C@H](C)[C@@H](OC)CN(C)C(=O)c2ccc(NC(=O)Nc3c(C)noc3C)cc2OC[C@@H]1C`?
AF4-AF9 inh: 1.2

What do the screens show for `CC1(C(=O)Nc2cccc(OC(F)(F)F)c2)Cc2c(-c3ccc(C(N)=O)cc3)ccnc2O1` (stereo not given)?
AF4-AF9 inh: -4.6

How did CC(C)NC(=O)Nc1ccc2c(c1)CC(=O)N([C@@H](C)CO)C[C@@H](C)[C@@H](CN(C)Cc1ccncc1)O2 do in these assays?
AF4-AF9 inh: -0.2

Results for O=C(NC1CCCC1)N1CCCCN2[C@@H](CO)[C@H](c3ccc(-c4ccccc4)cc3)[C@@H]2C1 ?
AF4-AF9 inh: 7.8

How did C[C@@H]1CN([C@H](C)CO)C(=O)c2cc(NC(=O)CCN3CCOCC3)ccc2O[C@H]1CN(C)Cc1ccc(Cl)c(Cl)c1 do in these assays?
AF4-AF9 inh: 0.0

Results for CO[C@H](CN(C)C(=O)c1ccccc1F)[C@H](C)CN([C@H](C)CO)S(=O)(=O)c1ccc(Cl)cc1 ?
AF4-AF9 inh: -0.5

What do the screens show for `COc1ccc(NC(=O)Nc2cccc3c2O[C@H](CN(C)Cc2ccncc2)[C@@H](C)CN([C@H](C)CO)C3=O)cc1`?
AF4-AF9 inh: 0.1

Results for COc1ccc(-c2nc3c(Cl)cc(C(F)(F)F)cn3c2Cc2cccc(Cl)c2)cc1OC ?
AF4-AF9 inh: 0.6

How did CCc1nc2c(OCCOc3ccc(F)cc3)cccn2c1N(C)C(=O)c1ccc(C)cc1 do in these assays?
AF4-AF9 inh: 2.5

How did CC(C)NC(=O)N[C@@H]1C=C[C@H](CC(=O)N2CCCCC2)O[C@H]1CO do in these assays?
AF4-AF9 inh: -1.4

What do the screens show for `CC(=O)N(C)C[C@H]1Oc2cc(C#CC3(O)CCCC3)ccc2S(=O)(=O)N([C@@H](C)CO)C[C@@H]1C`?
AF4-AF9 inh: -0.6

What do the screens show for `COc1cccc(Nc2nc(C(N)Cc3ccccc3)cs2)n1` (stereo not given)?
AF4-AF9 inh: 17

What do the screens show for `CC(C)N(C[C@@H]1N[C@@H](CO)[C@@H]1c1ccccc1)S(=O)(=O)c1ccccc1`?
AF4-AF9 inh: -1.0

What do the screens show for `COc1ccccc1-c1cnc2c(c1)C(=O)N([C@@H](C)CO)C[C@@H](C)[C@H](CN(C)C(=O)c1ccncc1)O2`?
AF4-AF9 inh: -2.7

How did CCCC#Cc1cnc2c(c1)C(=O)N([C@H](C)CO)C[C@H](C)[C@@H](CN(C)C(=O)Nc1ccccc1F)O2 do in these assays?
AF4-AF9 inh: -1.2

How did CCCC(=O)Nc1ccc2c(c1)OC[C@@H](C)NC[C@H](C)[C@H](OC)CN(C)C2=O do in these assays?
AF4-AF9 inh: -2.0

How did CC(C)NC(=O)Nc1ccc2c(c1)CC(=O)N([C@H](C)CO)C[C@H](C)[C@H](CN(C)S(=O)(=O)c1cccs1)O2 do in these assays?
AF4-AF9 inh: -7.3

How did CN(C)C(=O)c1cccc(-c2ccc([C@H]3[C@H]4CN(C(=O)CC5CC5)CC(=O)N4[C@H]3CO)cc2)c1 do in these assays?
AF4-AF9 inh: 6.6

Results for CCCN1[C@@H]2c3cccc(=O)n3C[C@@H]2[C@@H](CO)[C@@H]1C(=O)NC1Cc2ccccc2C1 ?
AF4-AF9 inh: -2.3

How did O=C(C[C@H]1CC[C@@H](NC(=O)c2ccc(F)cc2)[C@H](CO)O1)NCCc1ccncc1 do in these assays?
AF4-AF9 inh: -2.4

How did COCC(=O)Nc1ccc2c(c1)[C@@H]1C[C@@H](CC(=O)N[C@@H](C)c3ccccc3)O[C@@H](CO)[C@@H]1O2 do in these assays?
AF4-AF9 inh: 1.6

How did C[C@@H]1CN([C@@H](C)CO)S(=O)(=O)c2ccc(C#C[C@@H](C)O)cc2O[C@@H]1CN(C)C(=O)C1CCCCC1 do in these assays?
AF4-AF9 inh: 1.5

How did Cc1ccc2nc(-c3cccc(Br)c3)c(Cc3cccc(F)c3)n2c1 do in these assays?
AF4-AF9 inh: -1.4

What do the screens show for `CC(C)NC(=O)N[C@H]1CC[C@H](CCN)O[C@H]1CO`?
AF4-AF9 inh: -1.5

Results for O=c1cc(CN2CCCC2)c2c(ccc3ccccc32)o1 ?
AF4-AF9 inh: 2.3

Results for CNC(=O)C[C@@H]1CC[C@H]2[C@H](COc3ccc(NC(=O)Nc4cccc(C)c4)cc3C(=O)N2C)O1 ?
AF4-AF9 inh: -0.4

What do the screens show for `COc1ccc(NC(=O)Nc2ccc3c(c2)C(=O)N([C@@H](C)CO)C[C@@H](C)[C@H](CN(C)Cc2ccc(Oc4ccccc4)cc2)O3)cc1`?
AF4-AF9 inh: -1.7

What do the screens show for `C[C@@H]1CN([C@H](C)CO)C(=O)c2cc(NC(=O)C3CC3)ccc2O[C@H]1CN(C)Cc1ccc2c(c1)OCO2`?
AF4-AF9 inh: -2.1

Only part of the results is shown. The share of hits here may be higher or lower than overall.
